# Anaer choline gr: blocks anaerobic gram-negative growth on choline; calls only; AID 1963822; Gram-negative bacterium anaerobic choline minimal medium, absorbance growth; hits give low values; many inactives read as strong as hits in the columns shown; 55,000 tested, 0.2% active;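 active = growth z-score on choline under -2 at 7 or 20 h with little or no fall on glycerol, limits in tiers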;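 also: stock transfer was 300 nL into about 50 µL; the organism is E. coli; final concentration not given here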
# Anaer choline gr early: also measured in Anaer choline gr; calls as there; z-score; measured here: choline growth z-score, timepoint 1;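 score of optical density at 7 h as mean of two plates; lower means less growth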
# An asterisk follows results filed as active; i = inactive; & = joins results of further samples. Only part of the results is shown. The share of hits here may be higher or lower than overall.
SMILES,Anaer choline gr,Anaer choline gr early
Cc1ccc2nc(CCc3cccc(NC(=O)CN4C(=O)COc5ccc(Cl)cc54)c3)[nH]c2c1,i,1.42
Cc1cccc(-c2ccc(Nc3ccc(C(=O)NC4CCCC4)cc3)nn2)c1,i,-0.37
Cc1csc(C2CCN(C(=O)NCC(C)C)CC2)n1,i,-0.1
O=S(=O)(Nc1ccc(Cn2cnc(-c3nc(-c4cccc(F)c4)no3)c2)cc1)c1ccccc1F,i,0.02
Cc1cn2c(S(=O)(=O)NC3CCCCCC3)c(C(C)C)nc2s1,i,0.56
O=C(NCc1cccc(Cl)c1)c1cnn(-c2ccccc2)c1,i,-0.02
CN1C(C(=O)c2ccccc2)=C(OC(=O)c2ccc(Cl)cc2)c2ccccc2S1(=O)=O,i,2.81
Cc1ccc(-c2nc(N)n(S(=O)(=O)c3ccc(C)cc3)n2)cc1,i,1.9
COc1ccc(OC)c(NC(=O)C2CCCN(S(=O)(=O)c3cc(-c4noc(C)n4)ccc3Cl)C2)c1 (configuration not stated),i,-0.42
Cc1occc1-c1nnc(SCC(=O)NC(C)c2nc3ccccc3n2C)o1 (configuration not stated),i,0.15
Cc1cc(C)cc(NC(=O)c2ccc3ncc4c(=O)n(-c5ccc(F)cc5)[nH]c4c3c2)c1,i,-1.19
COc1ccc(-c2noc(-c3nnn(-c4ccccc4)c3N)n2)cc1,i,0.12
CCOc1ccc(S(=O)(=O)c2c(C(=O)c3ccccc3)cnc3cc4c(cc23)OCCO4)cc1,i,0.4
COC(=O)c1sccc1S(=O)(=O)N1CCC(C(N)=O)(N2CCCCC2)CC1,i,-1.18
Cc1ccc(/C=N/NC(=O)c2ccccc2Oc2ccccc2)o1,i,0.04
CN(Cc1cnc2nc(N)nc(N)c2n1)c1ccc(C(=O)NC(CCC(=O)O)C(=O)O)cc1 (configuration not stated),i,0.11&0.23&0.54
Nc1nonc1C(=O)N1CCCN(C(=O)Nc2ccc3c(c2)OCCO3)CC1,i,0.05
O=C(NCc1ccc2c(c1)OCO2)c1ccc(CSc2nc3ccncc3[nH]2)cc1,i,0.85
Cc1cccc(NC(=O)N2CCC(c3nc(-c4ccccc4)no3)CC2)c1C,i,-0.18
CC1CCN(c2nc3ccc(C(=O)NCc4cccc(Br)c4)cc3s2)CC1,i,-0.65
Cc1nc(S(=O)(=O)N2CCC(C(=O)NCc3ccc(Cl)cc3)CC2)cn1C,i,-2.39
COc1cc(C(O)CO)ccc1O (configuration not stated),i,0.13
Cn1nnc2c(Nc3cccc(Br)c3)ncnc21,i,1.6
Cc1ccc2c(c1)C(Cc1ccc(Br)cc1)C(=O)N2 (configuration not stated),i,-0.97

# Next section, overlapping the part above by 5 compounds.
SMILES,Anaer choline gr,Anaer choline gr early
CC1CCN(c2nc3ccc(C(=O)NCc4cccc(Br)c4)cc3s2)CC1,i,-0.65
Cc1nc(S(=O)(=O)N2CCC(C(=O)NCc3ccc(Cl)cc3)CC2)cn1C,i,-2.39
COc1cc(C(O)CO)ccc1O (configuration not stated),i,0.13
Cn1nnc2c(Nc3cccc(Br)c3)ncnc21,i,1.6
Cc1ccc2c(c1)C(Cc1ccc(Br)cc1)C(=O)N2 (configuration not stated),i,-0.97
COc1ccc(CNC(=O)c2ccc(Oc3ccnc(-c4cccc(F)c4)n3)cc2)c(OC)c1,i,0.85
O=C(c1cc(-c2ccccc2)on1)N(Cc1ccccc1)C1CCS(=O)(=O)C1 (configuration not stated),i,-0.81
CCn1c(=O)c(C(=O)Nc2nccc(C)n2)c(O)c2ccccc21,i,-0.19
CCc1nc(-c2ccc(C)c(S(=O)(=O)N3CC=C(c4ccccc4)CC3)c2)no1,i,2.17
O=C(O)c1cc(=O)cc(C(=O)O)[nH]1,i,-0.25
CN1C(=O)c2ccccc2Sc2cc(-c3noc(CNS(=O)(=O)c4ccccc4)n3)ccc21,i,0.77
COC(=O)c1cc2ccsc2n1CC(=O)NC1CCCCC1,i,-0.51
CCOCCCNC(=O)Nc1c(C)nc2nc[nH]n2c1=O,i,0.27
COc1cccc(N2CC(c3nc4ccccc4n3CC(O)COc3ccccc3)CC2=O)c1 (configuration not stated),i,0.54
O=C1CCSc2c1cccc2C(=O)NCCCN1CCC(N2CCCCC2)CC1,i,0.3
CCc1cc(-c2csc(S(=O)(=O)NCCCN3CCC(C)CC3)c2)on1,i,0.08
CCOc1ccccc1CNC(=O)C1Cc2ccccc2CN1S(=O)(=O)c1ccc(C)cc1 (configuration not stated),i,0.95
O=C(NCCCN1CCOCC1)c1ccc(C2SCC(=O)N2CCc2ccccc2)cc1 (configuration not stated),i,0.35
Cc1cc(N2CCOCC2)n2ncc(-c3ccc(F)cc3)c2n1,i,0.56
CCC1=NS(=O)(=O)c2cccnc2N1c1ccc2c(c1)OCCO2,i,0.11
CCOC(=O)c1cc(=O)c2cc(Cl)ccc2n1C,i,0.61
CCn1c(CCc2ccccc2NS(=O)(=O)c2cc(F)ccc2F)nc2ccccc21,i,1.83
Cc1ccc2c(c1)NC(=O)c1cc(S(=O)(=O)N3CCC(C)CC3)ccc1O2,i,-0.34
Cc1cccc(N2CCN(C(=O)C3CCN(S(=O)(=O)c4cn(C)c(C)n4)CC3)CC2C)c1 (configuration not stated),i,-0.22
CCOC(=O)c1cnn(-c2ccc(C(=O)N3CCN(C4CCCCC4)CC3)cc2)c1N,i,-1.74
CCOC(=O)c1sc2ccc(S(=O)(=O)N3CC(C)CC(C)C3)cc2c1N (configuration not stated),i,0.73
Cc1nc(-c2cc(S(=O)(=O)NCc3ccccc3Cl)c(C)s2)cs1,i,0.46
CN1C(C(=O)NCc2ccc(F)cc2)=C(c2ccccc2)c2cc(Cl)ccc2S1(=O)=O,i,-0.18
Cc1ccc2sc(N3CCN(C(=O)c4ccc5c(c4)OCCO5)CC3)nc2c1C,i,-0.93

# Single records, as listed above. Order of screens: Anaer choline gr, Anaer choline gr early
# Listed for `COc1ccc(OC)c(NC(=O)C2CCCN(S(=O)(=O)c3cc(-c4noc(C)n4)ccc3Cl)C2)c1` (configuration not stated) : i, -0.42
# Listed for `O=C(NCc1cccc(Cl)c1)c1cnn(-c2ccccc2)c1` : i, -0.02

# Later entries.
SMILES,Anaer choline gr,Anaer choline gr early
CCC(=O)Nc1ccc(-c2cc(C(=O)Nc3ccc(F)cc3F)c3ccccc3n2)cc1,i,-0.16
COc1ccccc1CNC(=O)C1CCN(c2ncccc2-n2cccc2)CC1,i,-1.41
O=C(CCC(=O)N1CCc2cc(S(=O)(=O)N3CCN(c4ccccc4)CC3)ccc21)N1CCCC1,i,2.51
CNc1ncnc2c1ncn2[C@@H]1O[C@H](CO)[C@H](O)C1O (some centres not stated),i,0.23
CCc1onc(C)c1C1CCCN1C(=O)Cn1nc(C(F)(F)F)cc1C (configuration not stated),i,-0.23
Cc1cc(C)cc(-n2c(SCC(=O)c3c[nH]c4ccccc34)nc3cc(C(=O)NC(C)C)ccc3c2=O)c1,i,0.15
CCOC(=O)c1c(C)[nH]c(C(=O)N2CCC(C(C)C(=O)NCc3ccc(N(C)C)cc3)CC2)c1C (configuration not stated),i,-0.96
CC(C)C(=O)N1CC(C)(C)c2cc(S(=O)(=O)NC3CC3)ccc21,i,0.74
COc1ccccc1-c1nc2c3c4c(sc3ncn2n1)CCCCC4,i,0.63
CN(C)C1(CNC(=O)COc2ccc(Cl)cc2)CCCCC1,i,-1.09
O=C(NCCCN1CCc2ccccc2C1)c1cc(S(=O)(=O)N2CCSCC2)ccc1Cl,i,0.42
O=C(CSc1ccccc1)NCCn1c(-c2ccncc2)nc2cccnc21,i,-0.53
COC(=O)CSc1nnc(C)c2c(C)n(-c3ccc(C)cc3C)nc12,i,-0.68
Cc1cccc(N2CCN(S(=O)(=O)c3cc(-c4cc(C(F)(F)F)on4)cs3)CC2)c1C,i,-0.7
CN(CCc1noc(-c2ccc(C(=O)N3CCOCC3)cc2)n1)C(=O)NCC1CCCO1 (configuration not stated),i,-1.49
COc1ccc(-c2cc(C)no2)cc1S(=O)(=O)CCC(=O)Nc1ccc(S(N)(=O)=O)cc1,i,2.33
O=C(CSc1ccccc1)N1CCN(c2nc3ccccc3n3cccc23)CC1,i,1.08
COc1cc(OC)c(NS(=O)(=O)c2csc(C(N)=O)c2)cc1Cl,i,-1.92
CN(C)c1ccc(C(CNC(=O)CCc2ccccc2)N(C)C)cc1 (configuration not stated),i,0.01
Cc1cccc(C)c1OCC(=O)Oc1cccc(-n2cnnn2)c1,i,-0.48
COc1ccccc1C(=O)NCC(c1ccccc1)c1c[nH]c2ccccc12 (configuration not stated),i,0.52
Cc1noc(C)c1C1CCCN1C(=O)NC(C)(C)C (configuration not stated),i,0.98
Cc1ccc2[nH]c(=O)c(-c3noc(CCC(=O)Nc4ncccc4C)n3)cc2c1,i,-0.48
Cc1ccccc1-c1cc(N2CCN(C(=O)COc3ccc(Cl)cc3)CC2)ncn1,i,-0.44

# The final 3 compounds of the part before come first, to join the parts.
SMILES,Anaer choline gr,Anaer choline gr early
Cc1noc(C)c1C1CCCN1C(=O)NC(C)(C)C (configuration not stated),i,0.98
Cc1ccc2[nH]c(=O)c(-c3noc(CCC(=O)Nc4ncccc4C)n3)cc2c1,i,-0.48
Cc1ccccc1-c1cc(N2CCN(C(=O)COc3ccc(Cl)cc3)CC2)ncn1,i,-0.44
O=C(Nc1ccc2c(c1)OCCO2)c1cccc(-c2cc(NC3CCCCC3)ncn2)c1,i,-0.19
COc1cccc(NC(=O)Cc2csc(COc3cccc(C)c3)n2)c1,i,0.12
CC(C)CC(=O)Nc1cnc(N2CCNCC2)c(C(=O)N2CCC(Cc3ccccc3)CC2)c1,i,0.37
COc1ccc(-c2cc(N3CCN(C(=O)Nc4ccc(C)c(Cl)c4)CC3)ncn2)cc1,i,0.78
CCOC(=O)COc1ccc(C)cc1C(=O)c1ccn2nc(-c3ccc(C)cc3)cc2n1,i,-0.75
COc1ccc(N2CCN(c3nccc4ccc(C(=O)Nc5ccc(Cl)cc5)cc34)CC2)cc1,i,-1.49
Cc1ccc2c(c1)NC(CN=C(N)N)CC2 (configuration not stated),i,-0.71
O=C(NCCCn1c(C(F)(F)F)nc2cccnc21)Nc1ccc2c(c1)OCO2,i,-0.5
Cc1cccc(NC(=O)CSc2nc3c(c(=O)[nH]2)CN(Cc2ccccc2)CC3)c1C,i,-0.1
Cn1c(=O)oc2cc(NC(=O)c3cccc(F)c3)ccc21,i,-0.26
CCOC(=O)C12CC1/C(=N\O)c1ccccc1O2 (configuration not stated),i,-0.71
CC(C)Cc1ccc(S(=O)(=O)N2CCCC(C)(C(=O)NCc3ccccc3)C2)cc1 (configuration not stated),i,1.72

# Overlap with the part before: four compounds, followed by the next part.
SMILES,Anaer choline gr,Anaer choline gr early
Cc1cccc(NC(=O)CSc2nc3c(c(=O)[nH]2)CN(Cc2ccccc2)CC3)c1C,i,-0.1
Cn1c(=O)oc2cc(NC(=O)c3cccc(F)c3)ccc21,i,-0.26
CCOC(=O)C12CC1/C(=N\O)c1ccccc1O2 (configuration not stated),i,-0.71
CC(C)Cc1ccc(S(=O)(=O)N2CCCC(C)(C(=O)NCc3ccccc3)C2)cc1 (configuration not stated),i,1.72
Cc1ccc(-n2nc(C)c3c(=O)n(CC(=O)NCc4cccc(Cl)c4)ccc32)cc1,i,-0.76
O=C(CCc1cn(-c2ccccc2)nc1-c1ccc2c(c1)OCO2)N1CCCC1,i,0.41
CCNc1cc(C)nc(N2CCN(C(=O)CC(C)C)CC2)n1,i,0.48
CCCn1nnc(NCc2ccc(-c3ccccc3Cl)o2)n1,i,-0.86
CCCCn1c(=O)c2sccc2n2c(SCC(=O)N3CCCC(C)C3)nnc12 (configuration not stated),i,-0.49
CCSc1nn2c(=O)c(C)nnc2s1,i,-1.16
O=c1n(Cc2ccc3c(c2)OCO3)nc2c(-c3nc(-c4ccccc4)no3)cccn12,i,1.25
O=c1c(-c2ccccc2)c1-c1ccccc1,i,0.02
Cc1nn(-c2nc3ccc(Br)cc3s2)c2c1C(c1cc(F)ccc1F)CC(=O)N2 (configuration not stated),i,0.55
O=C(Nc1ccc2nc(SCC(=O)N3CCOCC3)sc2c1)c1ccc(F)cc1,i,0.81
CCOC(=O)c1[nH]c(C)c(CCC(=O)N2CCC(N3CCCCC3)CC2)c1C,i,0.43
NS(=O)(=O)c1ccc(CCNC(=O)CCc2nnc3c(=O)n(-c4cccc(F)c4)ccn23)cc1,i,-0.04
Cc1nn(-c2ccc3nncn3n2)c2c1C(c1cc(F)ccc1F)CC(=O)N2 (configuration not stated),i,0.35
c1ccc2c(c1)nc(NCc1ccc3c(c1)OCO3)n1cnnc21,i,2.38
CCc1onc(C)c1C1CCCN1C(=O)c1ccnn1CC (configuration not stated),i,0.29
Cc1nn(-c2ccc3nncn3n2)c(C)c1CCC(=O)NCCN1CCOCC1,i,0.71
Cc1ccc(OCC(=O)Nc2ccccc2SCc2cc(=O)n3cc(Cl)ccc3n2)cc1,i,0.68
Cc1csc2nc(CSc3nnc(-c4ccccc4F)o3)cc(=O)n12,i,0.05
Cc1cc(C(=O)N2CCC(C)CC2)no1,i,-0.3
CCn1nc(C)c2ccnc(N3CCC(C(=O)Nc4cc(Cl)c(OC)cc4OC)CC3)c21,i,-0.51
Cc1cc(N2CCC(C)CC2)nc2ccc(NC(=O)C3CC3)cc12,i,-0.81
CC(=O)Nc1ccc(S(=O)(=O)N2CCC(c3ccncc3)CC2)cc1,i,0.22
CCCN1C(=O)c2ccccc2Sc2cc(NC(=O)CSc3nccc(C)n3)ccc21,i,1.15
CC(C)NC(=O)c1cc(NS(=O)(=O)c2ccc(Cl)cc2)cnc1N1CCNCC1,i,0.33
O=C(Nc1ccc2c(c1)OCO2)N1CCC(c2nc(-c3ccccc3)no2)CC1,i,-0.83
COc1ccccc1C(=O)Nc1ccc2c(c1)NC(=O)CO2,i,4.8
CC1CNc2ccccc2N(Cc2ccccc2F)C1=O (configuration not stated),i,-0.08

# Screens (PubChem BioAssay)
